StopGo RLuc = FMDV 2A StopGo reporter, Renilla signal | HEK cells with a luciferase reporter of 2A StopGo recoding | Potency, µM (top dose mostly 57.5 µM), inactives show top-dose signal change, negative = less light | 120,000 compounds, 0.32% hits; active means well fitted falling curve with a large enough effect; inconclusive means small, poorly fitted or top-dose-only effect; inactive means no such curve, though single readings can be large or run the other way; further: nearly all actives have a fitted effect of over 55% in size; overnight with compound
2A firefly = FMDV 2A StopGo reporter, firefly signal; HEK cells with a luciferase reporter of 2A StopGo recoding; AID 1745856; 120,000 compounds, 0.23% hits; Potency, µM (series often up to 57.5 µM), inactives show top-dose signal change, negative = less light; active = well fitted falling curve with a large enough effect; inconclusive = small, poorly fitted or top-dose-only effect; inactive = no such curve, though single readings can be large or run the other way; further: nearly all actives have a fitted effect of over 60% in size; overnight with compound
* marks the source's active call; other numbers are inactive results; ? = inconclusive; [ ] = dose if it differs, or a comment. On the % scale 0 is the no-effect control and ±100 the full control effect; potency means the concentration at half of the fitted maximal effect. Only part of the results is shown, so the mix of outcomes need not match the whole.

1) COc1ccc(NC(=O)c2oc3ccccc3c2NC(=O)Cc2coc3ccc(C)cc23)cc1
2) Cc1ccc(NC(=O)CSc2cn(CC(=O)N3CCCC3)c3ccccc23)cc1Cl
3) CCC(CC)NC(=O)COC(=O)c1cc(C)ccc1C
4) CCCCN(C)c1ccc(-c2n[nH]c(=O)c3ccccc23)cc1[N+](=O)[O-]
5) Cc1ccc(OCC(=O)Nc2ccc3oc(C)nc3c2)cc1
6) Cc1nc2cc(NC(=O)COc3ccc(F)cc3)ccc2o1
7) Cc1c(Cl)c(=O)oc2cc(OP(=O)(OCCCl)OCCCl)ccc12
8) CCc1ccc(NC(=O)C(C)Sc2cccc[n+]2[O-])cc1 (stereo not given)
9) COc1ccc(OC)c(CCNc2nc3cc(OC)c(OC)cc3c3nc(-c4cccnc4)nn23)c1
10) COc1ccc(N2CCN(C(=O)CCc3c(C)nc4cc(-c5ccc(Cl)cc5)nn4c3C)CC2)cc1
assay / compound	1	2	3	4	5	6	7	8	9	10
StopGo RLuc	-4%	-24%	-7%	12%	0%	11%	4%	7%	?	-5%
2A firefly	21%	0%	3%	0%	93%	159%[activator]	-10%	39%[activator]	?	32µM*

11) COc1ccc(CN2C[C@]3(C=C4CCCCC4n4c(=O)n(-c5ccccc5)c(=O)n43)N=C2NC(=O)c2ccccc2)c(OC)c1 (stereo not given in full)
12) COc1ccc(CCNC(=O)CCCn2nc(C)c3sc4ccccc4c3c2=O)c(OC)c1
13) CCc1cc(=O)oc2cc(OCC(=O)NCCCn3ccnc3)c(Cl)cc12
14) CCN(CC)S(=O)(=O)c1cccc(C(=O)Nc2sc3c(c2C#N)CCC(C)C3)c1 (stereo not given)
15) CCc1nn(CC(=O)N2CCN(c3cccc(OC)c3)CC2)c(=O)c2cc3occc3n12
16) Cc1ccc2nc(-c3ccc4ccccc4c3)cc(C(=O)O)c2c1
17) CCCCS(=O)(=O)CCCCCO
18) CCC(Sc1nnc2c(=O)n(-c3cccc(OC)c3)ccn12)C(=O)Nc1c(C)cccc1C (stereo not given)
19) O=C(c1[nH]c2ccccc2c1Sc1ccc(Cl)cc1)N1CCCCC1
20) O=C(CSc1nnc2ccc(-c3ccc(Br)cc3)nn12)NCc1ccc2c(c1)OCO2
assay / compound	11	12	13	14	15	16	17	18	19	20
StopGo RLuc	0%	10%	-11%	-4%	-12%	?	-5%	-18%	325%[activator]	6%
2A firefly	16%	-21%	-1%	-12%	-16%	63%[activator]	8%	-13%	-6%	10%

21) Cc1ccc(-n2nc(C)c3c(C)c(CCC(=O)NCc4cccc(Cl)c4)c(C)nc32)cc1C
22) Cc1cc(Br)ccc1NC(=O)c1sc2ncn(Cc3ccccc3Cl)c(=O)c2c1C
23) COc1ccc(C(CNC(=O)COc2ccc(Cl)c(C)c2)N2CCOCC2)cc1 (stereo not given)
24) CCOc1ccccc1NC(=O)C(C)Oc1ccc(-n2cnnn2)cc1 (stereo not given)
25) COc1cccc(-c2ccn[nH]2)c1
26) Cn1c(=O)n(C)c2cc(N3CCOCC3)c(NC(=O)c3ccccc3Br)cc21
27) O=C(Nc1c(Cl)cccc1Cl)c1cc(-c2ccc3c(c2)OCO3)on1
28) C=CCNc1oc(/C=C/c2cccc(OC)c2)nc1C#N
29) COC(=O)c1ccc(COC(=O)c2cc(C(C)=O)c[nH]2)cc1
30) CCC(C(=O)Nc1ccc(F)cc1F)n1nc(-c2ccc(C)cc2)ccc1=O (stereo not given)
assay / compound	21	22	23	24	25	26	27	28	29	30
StopGo RLuc	-20%	0%	-13%	5%	21%	47%[activator]	4%	71%[activator]	-6%	35%[activator]
2A firefly	-7%	7%	-16%	-10%	183%[activator]	0%	112%[activator]	181%[activator]	0%	21%

31) CC(C)c1nc2cc(NC(=O)c3ccc(=O)[nH]c3)ccc2o1
32) CC[N+](C)(CC#CC(O)(c1ccccc1)C1CCCC1)C(C)C (stereo not given)
33) COc1cc(C(=O)Nc2ccc3oc(C)nc3c2)cc(OC)c1C
34) CCC(C)NC(=O)Cn1c(=O)c2c(C(=O)OC)cc(C)nc2n(-c2ccccc2)c1=O (stereo not given)
35) CCCNC(=O)NC(=O)CN(Cc1ccc(C(F)(F)F)cc1)C1CC1
36) CC(=O)Nc1ccc(S(=O)(=O)NC2(C(F)(F)F)NC(=O)N(c3ccc(Cl)cc3)C2=O)cc1 (stereo not given)
37) C#Cc1cccc(NC(=O)c2nccnc2N)c1
38) Cc1cc(-c2nn3c(-c4ccccn4)nnc3s2)c2ccccc2n1
39) O=C(CCc1cccs1)Nc1nc(-c2ccc(Cl)cc2)cs1
40) Cc1ccccc1C(=O)N/N=C/c1sccc1C
assay / compound	31	32	33	34	35	36	37	38	39	40
StopGo RLuc	0%	7%	8%	0%	19%	-3%	1%	26%	?	19%
2A firefly	0%	-1%	-6%	6%	3%	-9%	173%[activator]	43%[activator]	?	211%[activator]

41) Cc1ccc(Cl)cc1NC(c1ccc(F)cc1)c1nnc(-c2ccccc2)o1 (stereo not given)
42) CC(OC(=O)c1cc(-c2ccncc2)nc2ccccc12)C(N)=O (stereo not given)
43) Cn1nc(C(=O)NCC(C)(c2ccccc2)c2ccccc2)c2ccccc2c1=O
44) Cc1cccc(C(=O)Nc2nn3c(-c4cccc(C)c4)nnc3s2)c1
45) COC(=O)C1=C(N)OC2=C(C(=O)CC(c3ccccc3)C2)C1c1ccc(C)cc1 (stereo not given)
46) COC(=O)c1cccc(N2C(=O)C(=O)/C(=C(/O)c3ccccc3)C2c2ccc(NC(C)=O)cc2)c1 (stereo not given)
47) COc1ccc(NC(=O)C(NS(=O)(=O)c2cccc3nsnc23)c2ccccc2)cc1 (stereo not given)
48) c1cn2c(NC3CCCC3)c(-c3ccc(N4CCOCC4)cc3)nc2cn1
49) COc1ccc(-c2cn3c(n2)sc2cc(C(=O)NCCCN4CCN(C)CC4)ccc23)cc1
50) Nc1nc(Cl)nc(Nc2ccccc2)c1[N+](=O)[O-]
assay / compound	41	42	43	44	45	46	47	48	49	50
StopGo RLuc	-7%	-5%	-25%	-12%	26%	-8%	93%[activator]	-5%	-16%	15%
2A firefly	-7%	4%	?	-2%	0%	32%[activator]	-17%	28%	31%[activator]	22%

51) COc1cc(Cl)c(C)cc1Nc1c2c(nc3ccccc13)CCC2
52) COc1cc(/C=C(/C#N)c2nc3ccccc3[nH]2)cc(Cl)c1OC(C)C
53) O=C(CN1C(=O)c2ccccc2C1=O)Nc1cccc2cccnc12
54) CC(NCCC(c1ccccc1)c1ccccc1)c1ccccc1 (stereo not given)
55) CCCCOC(=O)c1nc2ccccc2nc1NCc1ccccc1OC
56) Cc1ccc(Nc2ncnc3c2cnn3-c2ccc(C)cc2)cc1
57) O=C(Nc1cccc(Br)c1)c1csc2c1CCCC2
58) CCOc1ccc(NC(=O)C2(c3cccs3)CCOCC2)cc1
59) CCn1cc(C(=O)NCCc2ccc(Cl)cc2)c(=O)c2cc(S(=O)(=O)N3CCC(C)CC3)ccc21
60) CCc1cc(=O)oc2cc(OCC(=O)NCc3cccnc3)c(Cl)cc12
assay / compound	51	52	53	54	55	56	57	58	59	60
StopGo RLuc	?	?	4%	13%	23%	-4%	5%	-1%	-2%	-10%
2A firefly	?	?	-10%	0%	0%	98%[activator]	90%[activator]	-22%	-11%	-11%

61) CCNc1c(NC(=O)Nc2ccccc2Br)c(=O)oc2ccccc12
62) Cc1cc(Cl)c(Cl)cc1S(=O)(=O)Nc1ccccn1
63) CC(C)c1ccc2oc(-c3ccc(NC(=O)c4cccc(Br)c4)cc3)nc2c1
64) CCOC(=O)c1ccc(NC(=O)c2cnn3c(=O)c4c(n(CC)c23)CCN(Cc2ccc(OC)cc2)C4)cc1
65) O=C(CNc1nc(Cl)nc2nc[nH]c12)NC1CC1
66) CCc1ccc(C(CNC(=O)c2nn(C)c(=O)c3ccccc23)N(C)C)cc1 (stereo not given)
67) COc1ccc(C(=O)CSc2c(C(C)C)cnc3c2c(=O)n(C)c(=O)n3C)cc1
68) COc1cc2cc(CNc3ccccc3)c(=O)n(CC(=O)Nc3ccc(C)c(Cl)c3)c2cc1OC
69) Cc1cccc(NC(=O)CSc2nnc(CC3CCS(=O)(=O)C3)n2C)c1 (stereo not given)
70) COC(=O)c1cc(OC(=O)C(c2ccccc2)c2ccccc2)cc(C(=O)OC)c1
assay / compound	61	62	63	64	65	66	67	68	69	70
StopGo RLuc	-1%	0%	5%	8%	-2%	9%	-9%	-3%	-10%	8%
2A firefly	10%	-1%	62%[activator]	-15%	-1%	-21%	-21%	64%[activator]	6%	0%

71) CCc1ccc(NC(=O)Nc2cn(C)c(=O)c3ccccc23)cc1
72) Cc1cccc(N2CCN(S(=O)(=O)c3ccc(-c4cnc(C5CC5)o4)cc3)CC2)c1C
73) CCCCCS(=O)(=O)c1oc(-c2cccs2)nc1S(=O)(=O)c1ccc(C)cc1
74) COc1ccc(-c2cn3nc(N4CCC(C(=O)NCc5cccc(Cl)c5)CC4)sc3n2)cc1
75) Cc1cccc(NC(=O)c2oc3c(c2C)-c2[nH]ncc2CC3)c1C
76) CC(C)(C)c1nnc2sc(-c3ccc4c(c3)OCO4)nn12
77) CC(C)COc1ccc(C(=O)NCC2OCCc3ccccc32)cc1 (stereo not given)
78) CCN(CCNc1ccc([N+](=O)[O-])c2cccnc12)S(=O)(=O)c1ccccc1
79) Cc1nc2c(oc3ccccc32)c(C)c1C(=O)c1ccc(Cl)cc1
80) N#Cc1nc(COc2ccccc2)oc1N1CCC(Cc2ccccc2)CC1
assay / compound	71	72	73	74	75	76	77	78	79	80
StopGo RLuc	-13%	-19%	-12%	6%	-13%	11%	1%	3%	?	7%
2A firefly	14%	?	-10%	114%[activator]	64%[activator]	108%[activator]	53%[activator]	6%	?	13%

81) c1ccc(CCc2nnc(CC3CCCCC3)s2)cc1
82) CCN(C(=O)C(=O)c1c[nH]c2ccccc12)c1ccc(C)c(C)c1
83) CC(C)CC(C(=O)NCC1CCN(Cc2ccc(F)cc2)CC1)N1Cc2ccccc2C1=O (stereo not given)
84) COc1ccc(Cl)cc1NC(=O)CCc1ncc(-c2ccc(Cl)cc2)o1
85) O=C(NC1CCCC1)c1cccc(Br)c1
86) Cc1ccc(-n2nc3c(N4CCC(C(=O)N5CCC(C)CC5)CC4)nnc(C)c3c2C)cc1
87) COc1ccc(N(Cc2cc(CN3CCOCC3)cs2)S(=O)(=O)c2c(C)noc2C)cc1
88) COc1ccc(-c2cc(C(=O)N3CCN(C(=O)c4ccc(Br)o4)CC3)[nH]n2)cc1
89) Cc1ccc(C)c(S(=O)(=O)Nc2cccc3cccnc23)c1
90) CCn1c(C)c(C(C)=O)c2cc(OCC(O)CN3CCCCCC3)ccc21 (stereo not given)
assay / compound	81	82	83	84	85	86	87	88	89	90
StopGo RLuc	13%	170%[activator]	?	-10%	-6%[1.06 µM]	?	5%	26%	111%[activator]	-17%
2A firefly	195%[activator]	15%	?	20%	94%[activator]	?	14%	4%	-10%	-11%

Entries above with an NH in an aromatic ring (ten):
4) CCCCN(C)c1ccc(-c2n[nH]c(=O)c3ccccc23)cc1[N+](=O)[O-]
19) O=C(c1[nH]c2ccccc2c1Sc1ccc(Cl)cc1)N1CCCCC1
25) COc1cccc(-c2ccn[nH]2)c1
29) COC(=O)c1ccc(COC(=O)c2cc(C(C)=O)c[nH]2)cc1
31) CC(C)c1nc2cc(NC(=O)c3ccc(=O)[nH]c3)ccc2o1
52) COc1cc(/C=C(/C#N)c2nc3ccccc3[nH]2)cc(Cl)c1OC(C)C
65) O=C(CNc1nc(Cl)nc2nc[nH]c12)NC1CC1
75) Cc1cccc(NC(=O)c2oc3c(c2C)-c2[nH]ncc2CC3)c1C
82) CCN(C(=O)C(=O)c1c[nH]c2ccccc12)c1ccc(C)c(C)c1
88) COc1ccc(-c2cc(C(=O)N3CCN(C(=O)c4ccc(Br)o4)CC3)[nH]n2)cc1
assay / compound	4	19	25	29	31	52	65	75	82	88
StopGo RLuc	12%	325%[activator]	21%	-6%	0%	?	-2%	-13%	170%[activator]	26%
2A firefly	0%	-6%	183%[activator]	0%	0%	?	-1%	64%[activator]	15%	4%

Compound activity (PubChem BioAssay)
